MT1-MMP act inh = blockers of MT1-MMP proenzyme processing, primary screen, HT1080 RFP-PRO-GFP cells, GFP/RFP fluorescence; Matrix metalloproteinase-14 (Homo sapiens), P50281; GFP/RFP ratio fluorescence, overnight; percent of plate control window, DMSO zero; GFP/RFP ratio change, % at 20 µM; 0.061% of 360,000 active; AID 651647, 2012;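 active means GFP/RFP ratio change of at least 30% with cell ATP level not reduced by more than half and red fluorescence within 50% of control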; further: strong numbers were not always called active
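Test system: HT1080 RFP-PRO-GFP cells; Benchmarks: DMSO and RFP-L50D-GFP cell wells; Timing: cells overnight before dosing, compound overnight, 37 °C, 5% CO2; Compound: one 20 µM compound dose with 1% DMSO; Read-out: GFP/RFP fluorescence ratio.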
eIF4H FP inh = human eIF4H binding inhibitors, primary screen, translation initiation inhibitor project, biochemical, uHTS, fluorescence polarization. Eukaryotic translation initiation factor 4H (Homo sapiens), Q15056. inhibition, % at 35 µM. eIF4H fluorescence polarization binding assay. 0.94% of 290,000 active;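 active means 50% or more with normal probe brightness, or confirmed in later tests; about a fifth of its hits are not listed in these tables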;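 further: calls also rest on retests at 20 µM and on dose response follow-up; 0% = protein and probe with vehicle and 100% = probe without protein; strong numbers were not always called active; many hits fall short of the cut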
PABP FP inh = PABP poly(A) RNA binding inhibitors, primary screen, biochemical, fluorescence polarization, uHTS; Polyadenylate-binding protein 1 (Homo sapiens), P11940; inhibition, % at 35 µM; 1% of 290,000 active; AID 2014, 2009;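 active means 50% or more with normal probe brightness, or confirmed in later tests; about a fifth of its hits are not listed in these tables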;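 further: calls also rest on retests at 20 µM and on dose response follow-up; controls were probe without protein and protein plus probe with vehicle; some compounds called inactive have numbers as strong as hits; many hits fall short of the cut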
Target sequence (P11940 whole entry, looked up): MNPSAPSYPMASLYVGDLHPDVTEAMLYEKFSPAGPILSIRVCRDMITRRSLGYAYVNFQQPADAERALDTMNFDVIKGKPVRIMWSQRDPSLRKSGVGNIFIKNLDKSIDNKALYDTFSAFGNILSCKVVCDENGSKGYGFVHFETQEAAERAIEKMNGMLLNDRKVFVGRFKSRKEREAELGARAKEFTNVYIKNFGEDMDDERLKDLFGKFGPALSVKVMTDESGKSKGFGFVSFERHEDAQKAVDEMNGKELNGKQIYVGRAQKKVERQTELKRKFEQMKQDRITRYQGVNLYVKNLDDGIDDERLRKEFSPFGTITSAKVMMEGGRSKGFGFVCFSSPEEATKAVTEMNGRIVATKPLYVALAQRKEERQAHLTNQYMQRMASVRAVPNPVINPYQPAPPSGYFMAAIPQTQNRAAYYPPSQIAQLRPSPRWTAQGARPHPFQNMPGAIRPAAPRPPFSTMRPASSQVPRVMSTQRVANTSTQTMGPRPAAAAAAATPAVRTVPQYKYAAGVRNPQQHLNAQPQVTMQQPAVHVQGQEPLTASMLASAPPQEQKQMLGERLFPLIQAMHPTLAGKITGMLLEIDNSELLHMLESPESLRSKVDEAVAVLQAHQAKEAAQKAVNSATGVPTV
CSC inhib = cancer stem cell viability inhibitors, primary screen, luminescence. inhibition, % at 7.5 µM. cancer stem cell-like cells viability. 1.1% of 300,000 active;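 active means mean at 75% or more and at least half the replicates too; tested in HMLE shEcad cells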;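 further: 0% = median of negative and 100% = median of positive control wells; the first replicate is given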
Env fusion inh = inhibitors of HIV-1 Env-driven cell-cell fusion, primary screen, HeLa-JRFL effector, CEM21 target cells, luciferase. inhibition, % at 12.3 µM. 1.1% of 360,000 active;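 active means mean replicate inhibition score of at least 50 and every replicate individually at or above 50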;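 further: 0% = plate neutral controls and 100% = maraviroc near 300 nM; one replicate is shown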
Rce1 inh = yeast Rce1p protease inhibitors, primary screen, biochemical, fluorescence, cell-free homogeneous; CAAX prenyl protease 2 (Saccharomyces cerevisiae (strain ATCC 204508 / S288c)), Q03530; yeast membranes, quenched prenylated peptide cleavage fluorescence; calls only; 0.27% of 290,000 active;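 active means fall in fluorescence gain of 50% or more versus controls, with final raw signal at or below 3038400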;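 further: plate controls were neutral control wells for no effect and wells lacking membranes for full effect; tested at 10 µM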
UUG fidelity = modulators of yeast start codon fidelity, primary screen, whole organism, S. cerevisiae, single point, plate reader. activity score, % at 18.7 µM. 0.13% of 350,000 active. S. cerevisiae UUG-firefly luciferase reporter, luminescence/redox ratio. AID 602363, 2012;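 active means replicate mean at a twofold rise or more, about +100% in these data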;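 further: firefly luciferase made from a UUG start codon reports start codon fidelity; reporter light over untreated wells divided by growth signal over untreated wells; some hits fall short of that in this replicate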
MT1-MMP act inh RFP = also measured in MT1-MMP act inh; calls as there; RFP signal change, %; measured here: RFP expression control read;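 0 = vehicle wells; hits needed this value within 50% of zero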
Starred values were filed as active, the others as inactive; i = inactive; · = not tested or not shown; & = joins results of further samples; [ ] = another dose, or the depositor's remark. This is a random part of the collection (roughly 2.9% active in at least one column).

SMILES,eIF4H FP inh,UUG fidelity,Env fusion inh,Rce1 inh,MT1-MMP act inh,MT1-MMP act inh RFP,PABP FP inh,CSC inhib
O=C(COc1ccc(Br)cc1)Nc1cc(S(=O)(=O)N2CCCCC2)ccc1N1CCCCC1,1,·,12,i,-7,-11,2,3
Cc1ccc(Oc2nn[nH]n2)cc1,-6,-6,-38,i,0,1,-7,·
COc1cc(C(=O)NCc2cn3cccc(C)c3n2)cc(OC)c1OC,2,6,-12,i,-3,6,-6,-10
O=C(CSCc1ccc(Cl)c(Cl)c1)Nc1c[nH]c(=O)[nH]c1=O,-3,·,17,i,1,5,-13,9
C[C@@H]1CN([C@@H](C)CO)C(=O)CCCn2nncc2CO[C@@H]1CN(C)S(=O)(=O)c1ccccc1C#N,·,-9,-6[16.7 µM],·,1,2,·,·
COc1ccccc1CNC(=O)CSc1ncc(C(=O)Nc2ccccc2)c(=O)n1C,·,·,7,i,-1,-2,·,0
O=S(=O)(NCc1ccc(F)cc1)c1cc(Br)ccc1Br,·,-9,-11,·,0,-2,·,-5
Cc1ccc(N(Cc2ccco2)C(=O)c2cccc(S(=O)(=O)N(C)C)c2)cc1,0,-1,·,i,1,-4,4,1
O=c1[nH]cnc2c1sc1nc3c(c(-c4ccc(Cl)cc4)c12)CCC3,-11,-9,·,i,-6,-8,-5,-5
CSc1nc(N)nc(-c2cccs2)c1C#N,-2,-21,·,i,-5,-6,-1,8
Cc1ccc(F)cc1NCC(=O)Nc1ccc(Cl)cc1F,1,-1,7,i,3,1,3,2
O=C(CSc1nc2ccccc2[nH]1)N1CCCCC1,3,-16,-35,i,4,5,5,-10
COc1ccc(NC(=O)Cn2c(=O)n(CC(=O)NCc3ccco3)c(=O)c3ccccc32)cc1,8,-8,-46,i,2,2,4,1
Cc1ccc(N2C(=O)C3C4C=CC(CNC(=S)Nc5ccc(F)cc5)(O4)C3C2=O)cc1 (stereo unspecified),-5,-21,-9,i,6,-4,14,·
CN(C)S(=O)(=O)c1cc(NC(=O)c2cc(=O)c3ccccc3o2)ccc1Cl,0,-6,1,i,4,-9,12,6
Cc1ccn(C(=O)c2ccc(NC(=O)C3CCCCC3)cc2)n1,3,-11,·,i,-7,-2,15,7
CN(C)S(=O)(=O)N1CCN(CC(=O)Nc2ccc(Br)cc2)CC1,-11,-19,3,i,0,-2,0,-19
CCN(C(=O)Cc1cccs1)c1nnc(-c2cc(OC)c(OC)c(OC)c2)s1,-5,-4,-28,i,-5,-8,4,-11
COc1c(Cl)cnn(-c2ccccc2)c1=O,5,-16,26,i,2,4,-2,-13
COc1ccc(NC(C)=O)cc1S(=O)(=O)Nc1ccccc1C(=O)NCCc1ccccc1,8,-6,-38,i,-1,2,2,1
CN(c1ccc(Br)cc1)S(=O)(=O)c1ccc2[nH]cc(C(=O)NCCN3CCOCC3)c(=O)c2c1,3,3,2,i,2,1,-1,1
CCOC(=O)CCCSc1nc2sc3c(c2c(=O)[nH]1)CCC3,-5,-14,-15,i,0,0,-1,1
CCNC(=O)CN(CCc1ccccc1)S(=O)(=O)c1ccc(OC)cc1,-1,-1,10,i,2,-3,-1,8
CCCCNC(=O)NNC(=O)c1ccoc1C,3,0,·,i,1,5,6,2
COc1ccc(C)cc1-n1nnnc1SCc1nc2ccccc2c(=O)[nH]1,-7,·,0,i,-12,-9,-2,20
COc1cccc(CNC(=O)Cn2ccc3cc(S(=O)(=O)N4CCCCCC4)ccc32)c1,-2,-9,12,i,2,-10,-7,-5
CCN(CC)CCNC(=O)C(=O)NCC1OCCN1S(=O)(=O)c1ccc([N+](=O)[O-])cc1 (stereo unspecified),-3,·,14,i,-1,2,-3,19
COc1ccc(S(=O)(=O)NC(C)C(=O)N2CCCC2)cc1C (stereo unspecified),-6,5,-4,i,-4,-1,-9,·
COc1ccc(CNC(=O)C2CCC(CNc3c(N4CCOCC4)c(=O)c3=O)CC2)cc1 (stereo unspecified),-10,-9&-14,-7&-12,i,3&-2,3&3,7,-2
O=S(=O)(c1ccc(NCC2CCCCC2)nc1)N1CCOCC1,-4,1,0,i,3,0,-5,0
c1cncc(Nc2nc(-c3cccnc3)cs2)c1,-2,·,15,i,-5,-2,7,-3
CCC1CCCCN1C(=O)COC(=O)c1cc(=O)[nH]c2ccccc12 (stereo unspecified),·,-6,·,·,1,3,·,-18
S=C(Nc1ccccc1Cl)NC1CCCCCC1,4,-33,5,i,-3,-2,0,-7
O=C(CSc1ncnc2c1oc1ccccc12)Nc1ccccc1C(F)(F)F,-9,-8,-7,i,-2,-3,-25,8
COC(=O)c1c(CSc2ccc(Cl)cc2)noc1C(=O)NCc1ccco1,25,-17,-1,i,2,-5,-2,4
O=C(COc1ccccc1F)NNC(=O)c1cccc(-n2cccc2)c1,0,-13,-136,i,-4,0,4,-5
O=C(CN1C(=O)NC2(CCCc3ccccc32)C1=O)NCCc1ccc(F)cc1 (stereo unspecified),·,-7,-25,·,1,-5,·,-15
O=C(CSc1n[nH]c(-c2ccccc2)n1)Nc1ccc(F)cc1F,5,-6,3,i,-1,-5,-6,14
CCOC(=O)CN(C(=O)CSc1nnc(CNc2ccc(F)cc2)n1CC)c1ccc(F)cc1,2,-4,-6,i,·,·,-7,-9
Cc1ccc(-n2nc(C)c(NC(=O)COC(=O)c3ccccc3NCCO)c2C)cc1,·,·,-12,i,5,-8,·,-13
Cn1cc(CN2CC3C[C@@H]4CC2C[C@H](C3)C4)c(-c2ccc3c(c2)OCCO3)n1,-5,·,-7,i,-3,-2,3,·
CC(=O)c1c(C(C)=O)c(C)n(-c2cccc([N+](=O)[O-])c2)c1C,-2,·,0,i,0,-2,13,7
O=C(O)CCC(=O)Nc1ccccc1Oc1ccccc1,1,·,4,i,-1,1,46,5
Cc1ccccc1CCN(C(=O)c1csnn1)C(C(=O)NC1CCCC1)c1ccncc1 (stereo unspecified),-14,·,79*,i,-5,-5,0,-15
Cc1cc(C(=O)N2CCC2(C)C(=O)NCc2cccc3ccccc23)nn1C (stereo unspecified),·,6,-12,·,3,5,·,·
COc1ccc(N(C(=O)c2cccnc2)S(=O)(=O)c2ccc(OC)c(OC)c2)cc1,2,1,-12,i,-1,0,3,·
Cc1c(NC(=S)NC(=O)c2cccc([N+](=O)[O-])c2)c(=O)n(-c2ccccc2)n1C,-1,-16,-6,i,0,1,-2,-15
Cc1ccc(OCCn2cc(/C=C(\C#N)C(=O)NCC3CCCO3)c3ccccc32)cc1C (stereo unspecified),1,-16,-1,i,-6,-8,-6,16
CCC(C)CCN1CCN=C1Nc1ccccc1 (stereo unspecified),·,-13,-30,·,-2,4,·,-3
CC(C)[C@H](NC(=O)NC1CCN(Cc2ccccc2)CC1)C(=O)O,-1,·,-3,i,5,6,4,4

A few values from the list.
CSC inhib result of CCC1CCCCN1C(=O)COC(=O)c1cc(=O)[nH]c2ccccc12 (stereo unspecified) = -18
CSC inhib result of Cc1ccc(OCCn2cc(/C=C(\C#N)C(=O)NCC3CCCO3)c3ccccc32)cc1C (stereo unspecified) = 16
UUG fidelity result of COc1cccc(CNC(=O)Cn2ccc3cc(S(=O)(=O)N4CCCCCC4)ccc32)c1 = -9
Env fusion inh result of Cn1cc(CN2CC3C[C@@H]4CC2C[C@H](C3)C4)c(-c2ccc3c(c2)OCCO3)n1 = -7

Part of the list above in order of molar mass, smallest number first.
SMILES,eIF4H FP inh,UUG fidelity,Env fusion inh,Rce1 inh,MT1-MMP act inh,MT1-MMP act inh RFP,PABP FP inh,CSC inhib
COc1ccc(S(=O)(=O)NC(C)C(=O)N2CCCC2)cc1C (stereo unspecified),-6,5,-4,i,-4,-1,-9,·
O=C(COc1ccccc1F)NNC(=O)c1cccc(-n2cccc2)c1,0,-13,-136,i,-4,0,4,-5
O=C(CN1C(=O)NC2(CCCc3ccccc32)C1=O)NCCc1ccc(F)cc1 (stereo unspecified),·,-7,-25,·,1,-5,·,-15
COC(=O)c1c(CSc2ccc(Cl)cc2)noc1C(=O)NCc1ccco1,25,-17,-1,i,2,-5,-2,4
COc1cccc(CNC(=O)Cn2ccc3cc(S(=O)(=O)N4CCCCCC4)ccc32)c1,-2,-9,12,i,2,-10,-7,-5

More records
SMILES,eIF4H FP inh,UUG fidelity,Env fusion inh,Rce1 inh,MT1-MMP act inh,MT1-MMP act inh RFP,PABP FP inh,CSC inhib
NS(=O)(=O)c1ccc(CCNC(=O)COC(=O)Cc2c(F)cccc2Cl)cc1,-10,1,-13,i,0,3,-3,-4
Cc1ccc(S(=O)(=O)N2CCN(Cc3csc(C)n3)CC2)cc1,0,-9,-21,i,-2,3,16,-2
CC1CCc2c(sc(NC(=O)Cn3nc(C(F)(F)F)c4c3CCCCC4)c2C#N)C1 (stereo unspecified),-7,-16,·,·,-2,2,4,-3
Cc1ccc2c(c1)c1c(n2CC(O)Cn2ccnc2C)C(=O)CCC1 (stereo unspecified),2,·,·,i,4,2,9,-15
COc1cc(OC)cc(-c2cc3nc(C)cc(N4CCN(C(=O)c5ccco5)CC4)n3n2)c1,-5,·,·,i,·,·,-12,-11
COc1cc(NC(=O)COc2cc(O)c3c(c2)OC(C)(C)CC3=O)cc(OC)c1OC,-7,3,·,i,10,-25,-7,12
Cc1n[nH]c(=S)n1/N=C/c1ccc(Br)o1,0,·,·,i,-2,4,8,-2
CC(C)c1ccc(OCC(=O)Nc2cccc3c2CCCC3)cc1,-8,-8,·,i,-1,2,4,11
O=C(CSc1nnc(-c2ccc(F)cc2)o1)Nc1ccccc1N1CCOCC1,·,·,·,i,3,-1,·,-13

Another view of some results above.
mol: Cc1ccc2c(c1)c1c(n2CC(O)Cn2ccnc2C)C(=O)CCC1 (stereo unspecified)
  eIF4H FP inh: 2
  UUG fidelity: ·
  Env fusion inh: ·
  Rce1 inh: i
  MT1-MMP act inh: 4
  MT1-MMP act inh RFP: 2
  PABP FP inh: 9
  CSC inhib: -15
mol: COc1cc(OC)cc(-c2cc3nc(C)cc(N4CCN(C(=O)c5ccco5)CC4)n3n2)c1
  eIF4H FP inh: -5
  UUG fidelity: ·
  Env fusion inh: ·
  Rce1 inh: i
  MT1-MMP act inh: ·
  MT1-MMP act inh RFP: ·
  PABP FP inh: -12
  CSC inhib: -11
mol: COc1cc(NC(=O)COc2cc(O)c3c(c2)OC(C)(C)CC3=O)cc(OC)c1OC
  eIF4H FP inh: -7
  UUG fidelity: 3
  Env fusion inh: ·
  Rce1 inh: i
  MT1-MMP act inh: 10
  MT1-MMP act inh RFP: -25
  PABP FP inh: -7
  CSC inhib: 12
mol: Cc1n[nH]c(=S)n1/N=C/c1ccc(Br)o1
  eIF4H FP inh: 0
  UUG fidelity: ·
  Env fusion inh: ·
  Rce1 inh: i
  MT1-MMP act inh: -2
  MT1-MMP act inh RFP: 4
  PABP FP inh: 8
  CSC inhib: -2

Ordered by the number under UUG fidelity (rising): some entries from above.
mol | UUG fidelity | Env fusion inh | Rce1 inh | MT1-MMP act inh | MT1-MMP act inh RFP
CC1CCc2c(sc(NC(=O)Cn3nc(C(F)(F)F)c4c3CCCCC4)c2C#N)C1 (stereo unspecified) | -16 | · | · | -2 | 2
CC(C)c1ccc(OCC(=O)Nc2cccc3c2CCCC3)cc1 | -8 | · | i | -1 | 2
NS(=O)(=O)c1ccc(CCNC(=O)COC(=O)Cc2c(F)cccc2Cl)cc1 | 1 | -13 | i | 0 | 3

Screening results deposited in PubChem BioAssay by several laboratories.
